Source: PubChem
FGF22 binding: binders of recombinant human FGF22 by thermal shift | Q9HCT0 | SYPRO orange fluorescence; percent of sucrose octasulfate shift, DMSO zero | calls only at 9.99 µM | 1.5% of 340,000 active | AID 651658;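 active = melting point raised past a set limit in the mean and every replicate; inconclusive = no clear call; three in four hits are not shown here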
E coli growth: blocks Escherichia coli growth | AID 1053175 | OD600 absorbance (concentration not given with the values) | OD600, 23 h; active compounds read low | 0.21% of 330,000 active;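 active = OD600 absorbance below the run mean of sample wells minus 3.6 SD, in any replicate, cut at about 0.56 in these data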;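 note: stock transfer was 300 nL into about 60 µL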
Vif A3G: HIV-1 Vif–A3G interaction blockers – biochemical, TR-FRET, GST-Vif 1-94, biotin-A3G peptide, dose response retest, primary screen (AID 1117319). 0.57% of 260,000 active. TR-FRET GST-Vif / biotin-A3G peptide binding; higher % means a stronger effect; test concentration not given here; strong numbers were not always called active. inhibition, %, or IC50 in µM where a hit was titrated;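 active = above the screen mean plus three standard deviations and confirmed in dose response; inconclusive = results disagree or hit not tested in dose response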;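 note: Vif residues 1-94 fused to GST binding biotinylated APOBEC3G peptide 110-148; 0% = full assay without inhibitor and 100% = GST in place of GST-Vif; retest series ran down from 100 µM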
rRNA inh HTS: inhibitors of bacterial rRNA selective over humanized ribosomes; E. coli WT GFP vs humanized-ribosome RFP mutants, fluorescence, 24 h; active compounds read low; DMSO median 0, no signal -100; GFP signal change (wild-type ribosome), % (concentration not given with the values); 1.6% of 350,000 active;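 active = significant combined selectivity score with lowered wild-type GFP, culture density cut under 30%, mutant RFP and density less affected; inactive = any of these conditions unmet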; note: one replicate is shown; some compounds called inactive have numbers as strong as hits
ALR H2O2 inh: inhibitors of human sulfhydryl oxidase ALR | inhibition, % (no concentration beside the values) | purified ALR, DTT oxidation, H2O2 HRP-luminol luminescence | P55789 | AID 485317 | 3.8% of 290,000 active;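 active = mean and each replicate at 75% or more; inconclusive = only one of the two met; inactive = neither met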;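 note: stock transfer was 7.5 nL into about 7.5 µL; 0% = neutral wells and 100% = wells with inactivated enzyme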
MLL AF4-AF9 inh: blocks AF4 peptide binding to human AF9; P42568; AlphaScreen, biotin-AF4 peptide binding to FLAG-AF9; inhibition, % at 10 µM; 0.47% of 350,000 active; AID 651704;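 active = every replicate reaching a set inhibition limit, whatever the replicate mean, cut at about 25% in these data; inconclusive = mean inhibition reaches that limit but some replicates miss it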;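 note: 0% = plate neutral control median and 100% = total signal loss; the record names both 10 and 1 µM as test concentration; the first replicate is given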
Target sequence (P42568 whole entry, looked up): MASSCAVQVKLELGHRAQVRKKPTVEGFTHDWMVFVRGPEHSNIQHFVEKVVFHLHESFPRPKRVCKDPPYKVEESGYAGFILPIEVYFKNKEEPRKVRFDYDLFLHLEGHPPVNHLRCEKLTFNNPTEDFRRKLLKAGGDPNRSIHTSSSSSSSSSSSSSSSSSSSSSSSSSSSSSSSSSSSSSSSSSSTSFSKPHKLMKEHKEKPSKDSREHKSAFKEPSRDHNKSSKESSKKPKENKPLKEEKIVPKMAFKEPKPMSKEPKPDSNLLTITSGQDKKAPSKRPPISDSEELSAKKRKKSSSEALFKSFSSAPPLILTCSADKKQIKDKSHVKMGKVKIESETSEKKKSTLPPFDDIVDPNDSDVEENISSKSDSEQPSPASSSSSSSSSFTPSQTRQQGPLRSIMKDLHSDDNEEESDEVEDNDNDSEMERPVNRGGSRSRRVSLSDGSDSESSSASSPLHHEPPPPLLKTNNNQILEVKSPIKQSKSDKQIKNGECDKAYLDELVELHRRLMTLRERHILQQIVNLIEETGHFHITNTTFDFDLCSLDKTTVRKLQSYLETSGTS
HNF4A DNA FP: change in binding of human HNF4 alpha to DNA. P41235. 0.3% of 360,000 active. activity change, % at 10 µM. HNF4a-FITC DNA binding, fluorescence polarization, 1 h; in the data active = activity change above about 30%, passing the limit was not always enough;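 note: controls were the assay level and a saturating level of protein; the project sought stronger binding though the title names inhibitors; some compounds called inactive have numbers as strong as hits; positive values seem to mean higher polarization but the record does not say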
Target sequence (P41235 whole entry, looked up): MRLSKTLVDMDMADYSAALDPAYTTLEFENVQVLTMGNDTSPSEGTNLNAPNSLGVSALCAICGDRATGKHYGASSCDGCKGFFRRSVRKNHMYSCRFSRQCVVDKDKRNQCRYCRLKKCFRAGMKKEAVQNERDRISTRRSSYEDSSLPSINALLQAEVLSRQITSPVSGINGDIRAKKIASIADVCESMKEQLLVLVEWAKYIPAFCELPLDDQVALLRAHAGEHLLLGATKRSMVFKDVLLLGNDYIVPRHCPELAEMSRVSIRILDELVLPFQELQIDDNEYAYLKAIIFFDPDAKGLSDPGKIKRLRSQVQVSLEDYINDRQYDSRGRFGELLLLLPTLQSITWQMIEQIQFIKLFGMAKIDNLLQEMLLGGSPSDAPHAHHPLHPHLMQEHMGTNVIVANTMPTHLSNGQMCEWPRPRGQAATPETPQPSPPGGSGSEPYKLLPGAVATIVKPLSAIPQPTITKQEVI
rRNA inh HTS OD600: recorded beside rRNA inh HTS, whose call it bears; OD600 change, %; measured here: OD600 growth;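 optical density of the mix in the first replicate; 0 = DMSO median and -100 = no signal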
rRNA inh HTS RFP: also measured in rRNA inh HTS; calls as there; RFP signal change, %; measured here: RFP humanized mutant strains;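 first replicate; 0 = DMSO median and -100 = no signal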
Numbers without * were called inactive; i = inactive; ? = inconclusive; . = not tested or not shown. Not all compounds are listed. The share of hits here may be higher or lower than overall.

cpd	SMILES	FGF22 binding	E coli growth	Vif A3G	rRNA inh HTS	rRNA inh HTS OD600	rRNA inh HTS RFP	ALR H2O2 inh	MLL AF4-AF9 inh	HNF4A DNA FP
1	Cc1onc(-c2c(F)cccc2Cl)c1C(=O)OCC(=O)NC1CC1	i	0.64	.	10	4	0.5	3	-0.9	1.2
2	O=C(O)C1CC(=O)N(Cc2ccc(F)cc2)C1 (centres undefined)	.	0.77	1%	.	.	.	-8	.	-2.1
3	O=C(Nc1ccc(Cl)cc1)C1CCCN(c2ncnc3c2nc2n3CCCCC2)C1 (centres undefined)	i	0.67	.	-6	-32	-1.8	7	3.3	-3.7
4	COc1ccc(CNC(=O)C/C(C)=N/NC(=O)c2cnccn2)cc1	.	.	-4%	14	18	0.0	.	-0.7	0.9
5	COc1ccc(Cl)cc1NC(=O)C/C(C)=N/NC(=O)C(=O)NCc1ccccc1	i	.	.	7	12	0.2	.	-0.9	-3.3
6	COc1ccc(NC(=O)CN(C)C(=O)C(C)Sc2ccccc2)cc1 (centres undefined)	i	0.69	.	0	1	-1.2	-2	3.2	0.9
7	COc1ccc(C(=O)NC(=S)NNC(=O)c2c(-c3ccccc3)noc2C)cc1OC	i	0.7	-10%	-40	-40	-8.4	.	-0.1	-1.8
8	CN(C)S(=O)(=O)c1cccc(NC(=O)c2cc(=O)[nH]c(=O)[nH]2)c1	i	0.68	1%	4	-8	2.5	.	-1.3	1.5
9	O=C(NCc1ccc(F)cc1F)c1cc(COc2c(F)cccc2F)on1	i	0.72	24%	11	-1	7.3	.	0.0	-1.6
10	O=C(CC[C@H]1O[C@@H](n2cnc3c(NC(=O)c4ccccc4)ncnc32)[C@H](O)[C@@H]1O)NCC1CCCO1 (some centres undefined)	i	.	.	13	6	0.5	.	1.2	-0.1
11	CCOC(=O)C1(C)CCCCN1C(=O)c1ccccc1OC (centres undefined)	i	.	.	4	5	-1.4	.	-4.1	2.0
12	CCCNC(=O)C[C@@H]1CC[C@H]2[C@H](COc3ccc(NC(=O)c4ccc(C(F)(F)F)cc4)cc3C(=O)N2C)O1	i	.	.	-3	-4	0.9	.	-0.9	.
13	N=c1sccn1CC(=O)Nc1cccc(S(N)(=O)=O)c1	i	0.69	.	9	9	-0.7	-31	-3.2	-0.9
14	O=C1OCC/C1=C\OCCCO/C=C1\CCOC1=O	i	.	.	1	5	-2.2	10	-1.6	-3.2
15	Cc1ccc2c(c1)cc(CN(Cc1cccs1)C(=O)c1ccco1)c1nnnn12	.	0.67	-4%	.	.	.	.	.	2.5
16	C[C@H]1CN([C@@H](C)CO)C(=O)c2cc(NC(=O)Cc3cn(C)c4ccccc34)ccc2O[C@H]1CN(C)Cc1ccc(C(=O)Nc2ccccc2N)cc1	i	.	.	-6	-6	-2.5	.	-3.2	.
17	COC(=O)c1ccc(C)c(NS(=O)(=O)c2ccc3c(c2)OCCO3)c1	.	0.65	-3%	.	.	.	-1	.	3.3
18	Cc1ccc(NC(=O)CCNS(=O)(=O)c2ccc3c(c2)oc(=O)n3C)cc1C	.	0.71	15%	.	.	.	48	.	-3.8
19	Cc1cccc2nc(CSc3ccccc3C(=O)O)cn12	i	0.7	0%	0	13	1.3	26	-14	1.1
20	CCN(CC)CCCNc1nc(C)cc(COC)c1C#N	.	0.72	0%	26	3	-1.3	.	-1.8	-0.2
21	C/C(Cl)=C\Cn1c(O)c(N=NC(N)=S)c2cc(Br)ccc21	i	0.63	17%	-50	-53	-23	.	6.5	0.5
22	O=C(CCNC(=O)C1CCN(S(=O)(=O)c2ccccc2)CC1)NCc1cccc(C(F)(F)F)c1	i	0.66	.	-6	-11	4.7	-6	0.2	38*
23	Cc1noc(C)c1NC(=O)N(C)C[C@@H]1Oc2cc(C#CCN(C)C)ccc2S(=O)(=O)N([C@H](C)CO)C[C@@H]1C	i	.	.	5	2	-0.1	.	5.1	.
24	Cc1cc(C)n(Cc2ccc(C(=O)Nc3cccc(Br)c3)o2)n1	.	0.68	10%	.	.	.	24	.	-1.5
25	Cc1ccc(NC2=NC(c3ccccc3)n3c(nc(C)cc3=O)N2)c(C)c1 (centres undefined)	.	0.66	-1%	.	.	.	-4	.	2.2

Profiles, looked up by structure. Values in the order: FGF22 binding | E coli growth | Vif A3G | rRNA inh HTS | rRNA inh HTS OD600 | rRNA inh HTS RFP | ALR H2O2 inh | MLL AF4-AF9 inh | HNF4A DNA FP
Cc1ccc(NC(=O)CCNS(=O)(=O)c2ccc3c(c2)oc(=O)n3C)cc1C in the list: . | 0.71 | 15% | . | . | . | 48 | . | -3.8
N=c1sccn1CC(=O)Nc1cccc(S(N)(=O)=O)c1 in the list: i | 0.69 | . | 9 | 9 | -0.7 | -31 | -3.2 | -0.9

Other compounds
cpd	SMILES	FGF22 binding	E coli growth	Vif A3G	rRNA inh HTS	rRNA inh HTS OD600	rRNA inh HTS RFP	ALR H2O2 inh	MLL AF4-AF9 inh	HNF4A DNA FP
26	CC(=O)Nc1ccc(C2=NNC(=Nc3ccc(S(=O)(=O)N4CCOCC4)cc3)SC2)cc1	i	0.63	.	-1	4	3.7	-6	-4.2	6.5
27	CCOC(=O)c1c(C)[nH]c(C)c1C(=O)CSc1nc2ccccc2n1CCC#N	.	0.7	-5%	.	.	.	15	.	2.8
28	COc1ccccc1C(=O)Oc1ccc(N2C(=O)CCC2=O)cc1	.	0.7	5%	.	.	.	0	.	0.6
29	Cc1c(C(=O)N2CCCCC2)c(S(=O)(=O)N2CCN(c3ccc(F)cc3)CC2)c(C)n1C	i	0.63	.	2	10	1.5	-3	5.4	2.1
30	COC(=O)c1cc(S(=O)(=O)N2CCN(c3ccc(F)cc3)CC2)cn1C	i	0.71	.	7	11	-0.8	19	1.1	2.5
31	Cc1ccc2nc(CC(O)(c3ccccc3)c3ccccc3)ccc2c1	i	.	-8%	-1	-4	-8.3	.	-2.1	3.0
32	COC(=O)CSc1nnnn1-c1cccc2ccccc12	.	0.68	5%	-5	0	2.9	-15	.	3.4
33	COc1ccc(NC(=O)CCCN2C(=O)C(c3ccccc3)Oc3cccnc32)cc1OC (centres undefined)	i	0.66	.	-6	-16	-1.4	-46	-5.5	5.5
34	C[C@@H]1CN([C@@H](C)CO)S(=O)(=O)c2ccc(C#C[C@@H](C)O)cc2O[C@H]1CN(C)Cc1ccccn1	i	.	.	-8	0	-2.6	.	-0.5	.
35	CO[C@@H]1CN(C)C(=O)c2cc(NC(C)=O)ccc2OC[C@@H](C)N(C(=O)NC2CCCCC2)C[C@H]1C	i	.	.	3	1	-1.0	.	-5.0	.
36	Cc1[nH]n(C(N)=S)c(=O)c1N=Nc1cccc(C(F)(F)F)c1	i	0.7	7%	8	18	0.9	-25	-0.8	-4.3
37	O=C(Nc1ccc(Cl)c(Cl)c1)C1CC(=O)N(c2ccc(Br)cc2)C1 (centres undefined)	.	0.63	.	.	.	.	-7	.	-0.2
38	Cc1ccccc1NS(=O)(=O)c1ccc2oc(=O)ccc2c1	i	0.69	.	12	9	1.1	-2	0.3	0.7
39	COc1cccc(C(NC(C)=O)c2nc(-c3ccoc3)cs2)c1 (centres undefined)	i	.	.	16	32	1.1	.	-0.2	1.3
40	Cc1cc(C)nc(N2CCC(C(=O)Nc3ccc4c(c3)OCCO4)CC2)n1	i	0.72	.	8	6	-1.1	40	-5.5	5.4
41	Cc1ccc(NC(=O)CSc2nnc(-c3cnccn3)n2Cc2ccco2)cc1C	.	0.66	12%	.	.	.	2	.	-0.5
42	Cc1nc2[nH]c(=S)[nH]c2c(=O)[nH]1	i	0.73	-4%	36	21	3.8	.	-8.8	-0.8
43	C[C@@H]1CN([C@@H](C)CO)C(=O)Cc2cc(NC(=O)CCN3CCOCC3)ccc2O[C@H]1CN(C)Cc1ccc(-c2ccccc2)cc1	i	.	.	12	-12	21	.	13	.
44	CCCC(=NCCc1c(C)[nH]c2ccccc12)C1=C(O)CC(c2ccccc2)CC1=O (centres undefined)	.	0.72	.	.	.	.	-4	.	-1.6
45	C[C@H]1CN([C@@H](C)CO)C(=O)Cc2cc(NC(=O)C3CC3)ccc2O[C@@H]1CN(C)Cc1ccncc1	i	.	.	-1	2	-3.5	.	-2.1	.
46	C=CCNC(=O)c1ccc(OC)cc1	i	.	4%	7	6	1.6	-6	-2.8	-3.7
47	CC(C)C(C)NC(=O)CN1C(=O)NC(c2ccccc2)(c2ccccc2)C1=O (centres undefined)	i	0.71	.	-2	2	1.7	.	1.4	-0.7
48	COc1cccc(-c2ccc3c(c2)O[C@@H](CN(C)C(=O)C2CC2)[C@@H](C)CN([C@H](C)CO)S3(=O)=O)c1	i	.	.	-5	-31	-0.2	.	-12	.
49	COc1ccc(C#Cc2cnc3c(c2)C(=O)N([C@H](C)CO)C[C@H](C)[C@@H](CN(C)C(=O)CN(C)C)O3)cc1	i	.	.	4	10	1.7	.	11	.
50	COc1cccc(-c2nc(-c3ccc(NC(=O)c4cccnc4)cc3)no2)c1	.	0.81	-2%	.	.	.	.	.	1.6
51	Fc1ccc(-c2csc(N3CCSCC3)n2)cc1	i	0.68	16%	10	7	1.7	0	4.9	0.8
52	CN(Cc1ccccc1)C(=O)COc1ccc2ccccc2c1	i	0.7	.	4	-1	0.7	-6	-3.1	2.8
53	C[C@H]1CN([C@@H](C)CO)C(=O)c2cc(NC(=O)C3CC3)ccc2O[C@@H]1CN(C)Cc1ccc(C(=O)Nc2ccccc2N)cc1	i	.	.	2	5	-0.8	.	0.8	.
54	C/C(=N/Nc1ncc(C(F)(F)F)cc1Cl)c1ccncc1	i	.	-6%	-8	-11	-3.1	1	1.1	0.0
55	CCCCC1C2=C(CC(C)(C)CC2=O)OC2=C1C(=O)CC(C)(C)C2	.	0.7	4%	.	.	.	.	.	-1.8
56	CC1CN(Cc2cc(=O)oc3cc(O)ccc23)CC(C)O1 (centres undefined)	i	0.69	.	1	-2	-3.9	44	-8.2	0.5
57	O=C(NCC[C@H]1CC[C@H](NC(=O)C2CCCCC2)[C@H](CO)O1)c1cc(Cl)cc(Cl)c1	i	.	.	4	6	-0.7	.	-0.1	.
58	O=C(COC(=O)CC(NC(=O)c1ccccc1Cl)c1ccccc1)Nc1cccc(F)c1 (centres undefined)	i	0.71	.	-31	-29	-1.0	-7	-0.1	-2.2
59	CCOc1ccc2ccccc2c1/C=N/NC(=O)c1ccc(C)nc1	i	.	-3%	11	10	3.8	4	1.7	3.6
60	COC(=O)c1cccc(C(=O)Nc2ccc(C)cc2)n1	.	0.7	-4%	.	.	.	.	.	-1.1
61	Cc1[nH]c2c(ccc3cccnc32)c1C	i	0.6	12%	10	-20	-4.3	-14	3.4	3.0
62	CCOc1ccc(C2C(C(=O)c3cccs3)=C(O)C(=O)N2Cc2cccnc2)cc1OC (centres undefined)	i	0.67	?	2	-1	2.5	2	1.8	-0.4
63	COC(=O)[C@@]1(Sc2ccccc2)CC(=O)N[C@@H]1c1ccccc1	i	.	.	5	1	2.1	.	-0.9	-3.4
64	C[C@H](CO)N1C[C@H](C)[C@H](CN(C)C(=O)NC2CCCCC2)Oc2ccc(NC(=O)CCC(F)(F)F)cc2CC1=O	i	.	.	-2	1	0.3	.	-0.5	.
65	Cc1[nH]c2ccc(-c3nnc(SCC(=O)c4ccc(F)cc4)o3)cc2c1C	i	0.68	9%	-14	-3	20	1	0.2	1.7
66	CCN(CC)S(=O)(=O)c1cc(C(=O)Nc2ccncc2)ccc1Cl	.	0.67	1%	.	.	.	-4	.	-0.2
67	CCOC(=O)C1CCCN(c2c(Nc3ccc(OCC)cc3)c(=O)c2=O)C1 (centres undefined)	i	0.75	-2%	4	8	-0.8	65	1.2	4.2
